Yeast UUG start – modulators of yeast start codon fidelity, primary screen, whole organism, S. cerevisiae, single point, plate reader; 0.13% of 350,000 active; S. cerevisiae UUG-firefly luciferase reporter, luminescence/redox ratio; activity score, % at 18.7 µM;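 active means replicate mean at a twofold rise or more, about +100% in these data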;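 further: firefly luciferase made from a UUG start codon reports start codon fidelity; reporter light over untreated wells divided by growth signal over untreated wells; some hits fall short of that in this replicate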
Env fusion inh – inhibitors of HIV-1 Env-driven cell-cell fusion, primary screen, HeLa-JRFL effector, CEM21 target cells, luciferase; inhibition, % at 12.3 µM; 1.1% of 360,000 active;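 active means mean replicate inhibition score of at least 50 and every replicate individually at or above 50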;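 further: 0% = plate neutral controls and 100% = maraviroc near 300 nM; one replicate is shown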
Numbers without * were called inactive; [ ] = dose if it differs, or a comment.

Sequence of screens – Yeast UUG start, Env fusion inh
CCCNC(=O)C[C@H]1C[C@@H]2c3cc(NS(=O)(=O)c4ccc(F)cc4)ccc3O[C@@H]2[C@@H](CO)O1
 : 10.4, 29.8[16.7 µM]
C[C@@H]1CN([C@H](C)CO)C(=O)c2cc(NC(=O)Nc3ccc(F)cc3)ccc2O[C@@H](C)CCCCO[C@@H]1CN(C)C(=O)c1ccccc1
 : 1.1, -5.5[16.7 µM]
CCNC(=O)C[C@@H]1CC[C@H]2[C@@H](COc3ccc(NC(=O)C4CCCCC4)cc3C(=O)N2C)O1
 : -13.4, 5.2[16.7 µM]
O=C(NCC[C@@H]1CC[C@H](NC(=O)C2CCC2)[C@@H](CO)O1)Nc1ccc(Cl)cc1
 : 32.3, 2.9[16.7 µM]
CO[C@@H]1CN(C)C(=O)c2ccc(NC(=O)c3ccccc3)cc2OC[C@H](C)N(CC2CC2)C[C@@H]1C
 : 37.2, 4.2[16.7 µM]
C[C@@H]1CN([C@H](C)CO)C(=O)c2cc(-c3ccccc3F)cnc2O[C@@H]1CN(C)C(=O)C1CCC1
 : 2.7, 9.4[16.7 µM]
CCCCNC(=O)C(OC(=O)c1ccccc1)c1ccco1 (configuration not stated)
 : -8.3, 1.2[16.7 µM]
C/C=C/c1cnc2c(c1)C(=O)N([C@@H](C)CO)C[C@H](C)[C@@H](CN(C)C(=O)NCCC)O2
 : -5.1, -23.2[16.7 µM]
C[C@@H]1CCCCO[C@@H](CN(C)S(=O)(=O)c2ccccc2)[C@H](C)CN([C@@H](C)CO)C(=O)c2cc(NC(=O)Nc3ccc(F)cc3)ccc2O1
 : 29.3, 32.6[16.7 µM]
CNC(=O)C[C@@H]1CC[C@@H]2[C@@H](COc3ccc(NC(=O)Nc4ccccc4)cc3C(=O)N2C)O1
 : 7.0, -2.8[16.7 µM]
COCC(=O)N(C)C[C@@H]1Oc2ncc(C3=CCCCC3)cc2C(=O)N([C@@H](C)CO)C[C@@H]1C
 : -11.3, -28.8[16.7 µM]
C[C@H](CO)N1C[C@H](C)[C@@H](CN(C)C(=O)Cc2ccccn2)Oc2cc(C#Cc3ccccc3)ccc2S1(=O)=O
 : 1.7, 6.1[16.7 µM]
O=C(C[C@@H]1C=C[C@@H](NC(=O)C2CCC2)[C@H](CO)O1)NCc1ccncc1
 : 4.3, -6.6[16.7 µM]
CO[C@H]1CN(C)C(=O)c2ccc(NC(=O)c3ccccc3)cc2OC[C@@H](C)N(C(=O)CN(C)C)C[C@@H]1C
 : 6.3, 14.3[16.7 µM]
CO[C@H]1CN(C)C(=O)c2ccc(NS(C)(=O)=O)cc2OC[C@@H](C)N(C(=O)NC(C)C)C[C@@H]1C
 : -14.3, -6.0[16.7 µM]
COc1ccc(S(=O)(=O)N[C@@H]2CC[C@@H](CC(=O)N3CCN(c4ccccc4)CC3)O[C@H]2CO)cc1
 : 12.8, -8.1[16.7 µM]
CN(C)C(=O)C[C@H]1CC[C@H]2[C@@H](COC[C@@H](O)CN2C(=O)c2ccncc2)O1
 : -2.8, -100.3[16.7 µM]
C[C@@H]1CN([C@H](C)CO)S(=O)(=O)c2ccc(-c3cccnc3)cc2O[C@H]1CN(C)Cc1ccncc1
 : -8.5, 3.4[16.7 µM]
C[C@H]1CN([C@@H](C)CO)C(=O)Cc2cc(NC(=O)CCCCCC(=O)Nc3ccccc3N)ccc2O[C@H]1CN(C)C(=O)Nc1ccccc1
 : 23.6, 0.4[16.7 µM]
C[C@H](CO)N1C[C@H](C)[C@H](CN(C)Cc2ccccc2)Oc2ccc(NC(=O)Nc3cccc4ccccc34)cc2C1=O
 : -6.2, -21.4[16.7 µM]
Cc1ccc(S(=O)(=O)N[C@@H]2CC[C@H](CCn3cc(C4CC4)nn3)O[C@@H]2CO)cc1
 : -6.6, 5.8[16.7 µM]
C[C@@H]1CN([C@H](C)CO)S(=O)(=O)c2ccc(C#Cc3ccncc3)cc2O[C@@H]1CN(C)C
 : -10.5, -5.9[16.7 µM]
COc1ccc(S(=O)(=O)Nc2ccc3c(c2)C(=O)N([C@@H](C)CO)C[C@H](C)[C@H](CN(C)C(=O)NC(C)C)OCCCC[C@H](C)O3)cc1
 : 9.0, 92.7*[16.7 µM]
C[C@H](CO)N1C[C@H](C)[C@@H](CN(C)CC2CCOCC2)Oc2ncc(C3=CCCCC3)cc2C1=O
 : 12.0, 7.6[16.7 µM]
C[C@@H]1CCCCO[C@H](CN(C)S(=O)(=O)c2cccs2)[C@H](C)CN([C@@H](C)CO)C(=O)c2cc(NS(=O)(=O)c3cccs3)ccc2O1
 : 0.8, -43.5[16.7 µM]
O=C(C[C@H]1C=C[C@H](NC(=O)CCN2CCCCC2)[C@@H](CO)O1)NCc1ccc(Cl)c(Cl)c1
 : -5.3, -3.6[16.7 µM]
CCS(=O)(=O)Nc1ccc2c(c1)C(=O)N(C)C[C@H](OC)[C@H](C)CN(C)[C@H](C)CO2
 : 1.5, -3.6[16.7 µM]
COc1ccc(NC(=O)Nc2ccc3c(c2)C(=O)N([C@@H](C)CO)C[C@@H](C)[C@H](CN(C)C(=O)NC2CCCCC2)O3)cc1
 : 0.6, -7.8[16.7 µM]
Cc1noc(C)c1NC(=O)N(C)C[C@@H]1OCCCC[C@H](C)Oc2ccc(NS(=O)(=O)c3cccs3)cc2C(=O)N([C@@H](C)CO)C[C@@H]1C
 : 4.8, -5.8[16.7 µM]
C[C@@H]1CN([C@@H](C)CO)C(=O)c2cc(NS(=O)(=O)c3ccccc3)ccc2O[C@H]1CN(C)Cc1ccc(C(=O)O)cc1
 : 35.6, 2.6[16.7 µM]

An excerpt of these results, with values ahead of the structure.
Yeast UUG start	Env fusion inh	Molecule
10.4	29.8[16.7 µM]	CCCNC(=O)C[C@H]1C[C@@H]2c3cc(NS(=O)(=O)c4ccc(F)cc4)ccc3O[C@@H]2[C@@H](CO)O1
1.1	-5.5[16.7 µM]	C[C@@H]1CN([C@H](C)CO)C(=O)c2cc(NC(=O)Nc3ccc(F)cc3)ccc2O[C@@H](C)CCCCO[C@@H]1CN(C)C(=O)c1ccccc1
-13.4	5.2[16.7 µM]	CCNC(=O)C[C@@H]1CC[C@H]2[C@@H](COc3ccc(NC(=O)C4CCCCC4)cc3C(=O)N2C)O1
32.3	2.9[16.7 µM]	O=C(NCC[C@@H]1CC[C@H](NC(=O)C2CCC2)[C@@H](CO)O1)Nc1ccc(Cl)cc1
37.2	4.2[16.7 µM]	CO[C@@H]1CN(C)C(=O)c2ccc(NC(=O)c3ccccc3)cc2OC[C@H](C)N(CC2CC2)C[C@@H]1C
2.7	9.4[16.7 µM]	C[C@@H]1CN([C@H](C)CO)C(=O)c2cc(-c3ccccc3F)cnc2O[C@@H]1CN(C)C(=O)C1CCC1
-8.3	1.2[16.7 µM]	CCCCNC(=O)C(OC(=O)c1ccccc1)c1ccco1 (configuration not stated)
-5.1	-23.2[16.7 µM]	C/C=C/c1cnc2c(c1)C(=O)N([C@@H](C)CO)C[C@H](C)[C@@H](CN(C)C(=O)NCCC)O2
29.3	32.6[16.7 µM]	C[C@@H]1CCCCO[C@@H](CN(C)S(=O)(=O)c2ccccc2)[C@H](C)CN([C@@H](C)CO)C(=O)c2cc(NC(=O)Nc3ccc(F)cc3)ccc2O1
7.0	-2.8[16.7 µM]	CNC(=O)C[C@@H]1CC[C@@H]2[C@@H](COc3ccc(NC(=O)Nc4ccccc4)cc3C(=O)N2C)O1
-11.3	-28.8[16.7 µM]	COCC(=O)N(C)C[C@@H]1Oc2ncc(C3=CCCCC3)cc2C(=O)N([C@@H](C)CO)C[C@@H]1C
1.7	6.1[16.7 µM]	C[C@H](CO)N1C[C@H](C)[C@@H](CN(C)C(=O)Cc2ccccn2)Oc2cc(C#Cc3ccccc3)ccc2S1(=O)=O
4.3	-6.6[16.7 µM]	O=C(C[C@@H]1C=C[C@@H](NC(=O)C2CCC2)[C@H](CO)O1)NCc1ccncc1
6.3	14.3[16.7 µM]	CO[C@H]1CN(C)C(=O)c2ccc(NC(=O)c3ccccc3)cc2OC[C@@H](C)N(C(=O)CN(C)C)C[C@@H]1C

The results go on:
Sequence of screens – Yeast UUG start, Env fusion inh
CCCC#Cc1cnc2c(c1)C(=O)N([C@@H](C)CO)C[C@H](C)[C@@H](CN(C)C(=O)Cc1ccncc1)O2
 : -7.0, 21.8[16.7 µM]
C[C@@H]1CN([C@H](C)CO)S(=O)(=O)c2ccc(-c3ccncc3)cc2O[C@H]1CN(C)C(=O)c1ccc2c(c1)OCO2
 : 10.8, 17.0[16.7 µM]
COc1ccc(NC(=O)N(C)C[C@H]2OCCCC[C@H](C)Oc3ccc(NC(=O)Nc4ccccc4)cc3C(=O)N([C@H](C)CO)C[C@@H]2C)cc1
 : -6.4, 11.7[16.7 µM]
C[C@H](CO)N1C[C@H](C)[C@@H](CN(C)Cc2ccncc2)Oc2ccc(NS(=O)(=O)c3cccs3)cc2CC1=O
 : -1.2, 9.7[16.7 µM]
COC(=O)C[C@H]1C[C@H]2c3cc(NC(=O)CC4CC4)ccc3O[C@H]2[C@@H](CO)O1
 : -12.6, 12.1[16.7 µM]
COc1ccc(NC(=O)Nc2ccc3c(c2)CC(=O)N([C@H](C)CO)C[C@H](C)[C@H](CN(C)C(=O)Nc2cccc4ccccc24)O3)cc1
 : -11.5, 4.0[16.7 µM]
O=C(N[C@@H]1CC[C@H](CCNS(=O)(=O)c2ccc(F)cc2)O[C@H]1CO)C1CCOCC1
 : -2.1, 31.5[16.7 µM]
Cc1noc(C)c1NC(=O)Nc1ccc2c(c1)C(=O)N([C@@H](C)CO)C[C@@H](C)[C@H](CN(C)CC1CCCCC1)OCCCC[C@@H](C)O2
 : 10.4, -5.7[16.7 µM]
COc1ccc(S(=O)(=O)N(C)C[C@@H]2Oc3c(NC(=O)Nc4c(C)noc4C)cccc3C(=O)N([C@@H](C)CO)C[C@@H]2C)cc1
 : -7.8, -20.6[16.7 µM]
CCCNC(=O)C[C@@H]1CC[C@H]2[C@H](COc3ccc(NC(=O)c4cc(F)cc(F)c4)cc3C(=O)N2C)O1
 : -9.0, 22.6[16.7 µM]
COc1ccccc1-c1cn(CC[C@@H]2CC[C@H](NC(=O)NC(C)C)[C@@H](CO)O2)nn1
 : -2.6, 3.9[16.7 µM]
CNC[C@@H]1Oc2cc(C#CCOC)ccc2S(=O)(=O)N([C@@H](C)CO)C[C@@H]1C
 : 5.2, -12.6[16.7 µM]
O=C(C[C@H]1CC[C@H](NS(=O)(=O)c2ccc(F)cc2)[C@@H](CO)O1)NC1CCC1
 : -7.5, -8.9[16.7 µM]
O=C(Nc1ccc2c(c1)[C@H]1C[C@@H](CC(=O)N3CCc4ccccc4C3)O[C@H](CO)[C@H]1O2)NC1CCCC1
 : -10.5, 13.4[16.7 µM]
COCC(=O)Nc1ccc2c(c1)C(=O)N(C)C[C@H](OC)[C@H](C)CN(C(=O)COC)[C@H](C)CO2
 : -5.2, 11.8[16.7 µM]
COc1ccc(NC(=O)Nc2ccc3c(c2)C(=O)N([C@H](C)CO)C[C@H](C)[C@@H](CN(C)S(=O)(=O)c2cn(C)cn2)O3)cc1
 : -11.5, 2.8[16.7 µM]
COc1ccc(NC(=O)N(C)C[C@@H]2OCCCC[C@H](C)Oc3ccc(NC(=O)Nc4ccc(F)cc4)cc3C(=O)N([C@@H](C)CO)C[C@@H]2C)cc1
 : 7.8, -15.7[16.7 µM]

Screening data from PubChem.

This is a subset. The share of hits here may be higher or lower than overall.
